Rce1 inh: inhibitors of yeast Ras-converting enzyme; Q03530; yeast membranes, quenched prenylated peptide cleavage fluorescence; calls only; hit rate 0.27% among 290,000; AID 2563;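 active = fall in fluorescence gain of 50% or more versus controls, with final raw signal at or below 3038400; inconclusive = same 50% fall but final raw signal above 3038400; inactive = fall in fluorescence gain under 50%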;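 also: plate controls were neutral control wells for no effect and wells lacking membranes for full effect; tested at 10 µM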
HIV Env fusion: blocks HIV Env-driven cell-cell fusion | inhibition, % at 12.3 µM | hit rate 1.1% among 360,000 | AID 651610 | HeLa-JRFL Env/CEM21 cell fusion, luciferase;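 active = mean replicate inhibition score of at least 50 and every replicate individually at or above 50; inconclusive = only one of the two criteria met; inactive = mean below 50 and not all replicates reaching 50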;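 also: 0% = plate neutral controls and 100% = maraviroc near 300 nM; one replicate is shown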
CSC inhib: blocks cancer stem cells; cancer stem cell-like cells viability, luminescence; inhibition, % at 7.5 µM; hit rate 1.1% among 300,000; AID 2717;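 active = mean at 75% or more and at least half the replicates too; inconclusive = mean and replicates disagree; tested in HMLE shEcad cells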;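 also: 0% = median of negative and 100% = median of positive control wells; the first replicate is given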
MT1-MMP act inh: blocks activation of human MT1-MMP. P50281. HT1080 RFP-PRO-GFP cells, GFP/RFP ratio fluorescence, overnight; percent of plate control window, DMSO zero. GFP/RFP ratio change, % at 20 µM. hit rate 0.061% among 360,000;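 active = GFP/RFP ratio change of at least 30% with cell ATP level not reduced by more than half and red fluorescence within 50% of control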; also: strong numbers were not always called active
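Test system: HT1080 RFP-PRO-GFP cells; Benchmarks: DMSO and RFP-L50D-GFP cell wells; Timing: cells overnight before dosing, compound overnight, 37 °C, 5% CO2; Compound: one 20 µM compound dose with 1% DMSO; Read-out: GFP/RFP fluorescence ratio.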
PABP FP inh: PABP-poly(A) binding inhibition | P11940 | PABP-poly(A) RNA binding, fluorescence polarization | inhibition, % at 35 µM | hit rate 1% among 290,000 | AID 2014;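 active = 50% or more with normal probe brightness, or confirmed in later tests; inconclusive = above 50% with abnormal brightness, or retests that disagree; inactive = below 50% or failed in later tests; about a fifth of its hits are not listed in these tables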;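 also: calls also rest on retests at 20 µM and on dose response follow-up; controls were probe without protein and protein plus probe with vehicle; some compounds called inactive have numbers as strong as hits; many hits fall short of the cut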
Target sequence (P11940 whole entry, looked up): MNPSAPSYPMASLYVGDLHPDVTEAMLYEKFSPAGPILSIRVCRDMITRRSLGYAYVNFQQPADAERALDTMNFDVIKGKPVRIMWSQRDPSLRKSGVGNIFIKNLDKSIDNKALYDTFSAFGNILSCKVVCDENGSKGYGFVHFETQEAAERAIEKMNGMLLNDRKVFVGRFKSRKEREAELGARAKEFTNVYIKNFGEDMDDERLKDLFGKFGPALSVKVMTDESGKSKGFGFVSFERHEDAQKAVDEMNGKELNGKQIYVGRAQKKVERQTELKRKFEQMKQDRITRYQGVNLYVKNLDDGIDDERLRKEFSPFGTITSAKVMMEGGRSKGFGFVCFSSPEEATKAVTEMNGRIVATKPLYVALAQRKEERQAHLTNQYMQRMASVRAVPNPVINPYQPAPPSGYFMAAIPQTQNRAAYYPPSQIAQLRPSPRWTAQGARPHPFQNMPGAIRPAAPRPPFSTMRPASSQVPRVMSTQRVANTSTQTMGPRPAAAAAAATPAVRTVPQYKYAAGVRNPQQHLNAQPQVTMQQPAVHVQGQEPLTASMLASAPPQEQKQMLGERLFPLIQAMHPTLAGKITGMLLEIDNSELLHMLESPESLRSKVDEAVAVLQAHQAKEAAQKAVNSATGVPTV
UUG fidelity: alters start codon recognition fidelity in yeast. S. cerevisiae UUG-firefly luciferase reporter, luminescence/redox ratio. activity score, % at 18.7 µM. hit rate 0.13% among 350,000. AID 602363;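 active = replicate mean at a twofold rise or more, about +100% in these data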;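 also: firefly luciferase made from a UUG start codon reports start codon fidelity; reporter light over untreated wells divided by growth signal over untreated wells; some hits fall short of that in this replicate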
eIF4H inh: inhibitors of RNA binding by human eIF4H. Q15056. eIF4H fluorescence polarization binding assay. inhibition, % at 35 µM. hit rate 0.94% among 290,000. AID 2012;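 active = 50% or more with normal probe brightness, or confirmed in later tests; inconclusive = above 50% with abnormal brightness, or retests that disagree; inactive = below 50% or failed in later tests; about a fifth of its hits are not listed in these tables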;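 also: calls also rest on retests at 20 µM and on dose response follow-up; 0% = protein and probe with vehicle and 100% = probe without protein; strong numbers were not always called active; many hits fall short of the cut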
MT1-MMP act inh RFP: also measured in MT1-MMP act inh; calls as there; RFP signal change, %; measured here: RFP expression control read;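 0 = vehicle wells; hits needed this value within 50% of zero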
An asterisk follows results filed as active; i = inactive; ? = inconclusive; . = no result given; & = joins results of further samples. Not all compounds are listed; the hit share may differ from the screen's.

SMILES | Rce1 inh | HIV Env fusion | CSC inhib | MT1-MMP act inh | MT1-MMP act inh RFP | PABP FP inh | UUG fidelity | eIF4H inh
CCOC(=O)CCCCC(=O)c1[nH]c(=O)[nH]c1C[n+]1ccc(C)cc1 | i | 2 | -4 | -1 | 4 | -9 | -6 | 2
C/C(CC(=O)Nc1cccnc1)=N\NC(=O)c1ccc([N+](=O)[O-])c(Cl)c1 | i | 16 | 8 | 1 | 2 | 4 | . | 9
COc1ccc(NC(C)=O)cc1S(=O)(=O)NC(Cc1ccccc1)C(=O)NCc1ccccc1C (centres undefined) | i | -1 | 0 | -5 | -2 | 3 | -6 | -6
COc1cccc(NC(=O)c2cnc[nH]2)c1 | i | 0 | -10 | -7 | -3 | -7 | -13 | -6
CN(C(=O)c1ccc(S(=O)(=O)N2CCCCC2)cc1)C1CCS(=O)(=O)C1 (centres undefined) | i | 21 | -3 | 3 | 4 | . | -9 | .
COc1ccc(-c2nc3ncccn3c2Br)cc1 | i | -54 | -7 | 2 | -4 | 3 | . | -11
COc1ccc(S(=O)(=O)Nc2ccc(Nc3ccccc3)cc2)cc1 | i | -20 | 2 | 2 | 1 | . | -13 | .
CC1CCC(NC(=O)COC(=O)CCC(=O)c2ccc(Cl)s2)CC1 (centres undefined) | i | -8 | -7 | 0 | 4 | . | -14 | .
O=C(O)c1ccc(/C=N\Nc2ccc(S(=O)(=O)N3CCOCC3)cc2[N+](=O)[O-])cc1 | i | -5 | -17 | 19 | 12 | 11 | -9 | -3
COc1ccc(S(=O)(=O)Nc2ccc(C)cc2)cc1OC | i | -25 | -7 | -1 | 0 | 8 | -5 | 0
CCOC(=O)CNC(=O)CSc1ncnc2c1cnn2-c1ccc(C)cc1 | i | . | 3 | 0 | 1 | 1 | -10 | -7
Cc1ccc(Nc2nc(NCCO)c3ccccc3n2)cc1C | i | 11 | . | 6 | -8 | -9 | -27 | -8
CCOC(=O)c1nnc(-c2cccs2)nc1NC(C)C | i | 22 | -5 | . | . | -6 | 2 | -5
O=C(CN1CCCC1)Nc1cccc(Cl)c1 | i | -106 | 0 | 3 | 5 | 10 | -22 | -14
CC(=O)N1c2ccc(S(=O)(=O)N3CCCC(C(=O)NC4CCCC(C)C4C)C3)cc2CC1C (centres undefined) | i | 12 | -11 | -4 | -18 | -4 | -2 | -9
O=C(CSc1nnc(NC(=O)c2ccco2)s1)Nc1cccc(F)c1 | i | . | -6 | 0 | -1 | 13 | 11 | -10
O=C(COC(=O)c1ccc(F)cc1F)NCCC1=CCCCC1 | . | 6 | . | -6 | 0 | . | -1 | .
COc1ccc(OCc2cn3c(C)cc(C)nc3n2)cc1 | i | 11 | 2 | 3 | 5 | -2 | -8 | 23
CCOC(=O)c1cn2nc(SCc3ccccc3)nc2nc1C | i | -35 | -8 | 1 | 0 | -1 | -6 | 2
c1ccc(-c2nnc(OCC3CCCO3)c3ccccc23)cc1 (centres undefined) | i | -7 | -5 | -1 | -3 | -2 | -9 | 7
Cc1c(Cl)cccc1NC(=O)Cn1cc(C(F)(F)F)cc(Cl)c1=O | i | 7 | -12 | 3 | -1 | 0 | . | 10
CC(C)NC(=O)Nc1nnc([C@@H]2C[C@H](O)[C@@H](CO)O2)s1 | . | 11 | . | 1 | 1 | . | -8 | .
CCN(CC(=O)Nc1ccccc1SC)Cc1nc2ccccc2c(=O)[nH]1 | i | 8 | -14 | 6 | 3 | 7 | -3 | -12
Cc1ccc(CSCCNC(=O)CSCc2ccc([N+](=O)[O-])cc2)cc1 | . | ? | -4 | 2 | -3 | 1 | . | -17
Cc1ccc(-c2nc(-c3ccccc3)no2)cc1 | i | . | -2 | 5 | 7 | -2 | . | -2
C[C@@H]1CCC(=O)N(CC[C@H](N=[N+]=[N-])c2ccccc2)CC1 | i | -11 | . | -2 | -3 | 8 | -3 | 2
COc1ccc(C(=O)OCC(=O)N(Cc2ccccc2)Cc2ccccc2)c(O)c1 | . | 5 | . | 1 | 1 | . | -17 | .
O=C(NCCc1ccc2c(c1)OCCO2)c1ccc(F)cc1 | i | 4 | 4 | 5 | -3 | 8 | . | -6
CCS(=O)(=O)Nc1cccc(C2=NN(S(=O)(=O)c3ccccc3)C(c3ccco3)C2)c1 (centres undefined) | i | 25 | 3 | 0 | 1 | -16 | . | -4
CC(C)(C)C(=O)N(Cc1ccc(Cl)cc1)Cc1cccnc1 | i | -8 | -9 | -2 | 0 | 0 | -10 | -12
CCOC(=O)N1CCN(C(=O)CSc2nc3ccccc3c(=O)n2-c2ccccc2)CC1 | . | . | 8 | 5 | 2 | -2 | 16 | 1
O=C1c2ccccc2C(=O)c2c(NCc3cccnc3)cccc21 | i | -44 | 1 | 28 | 38 | 11 | 7 | 11
O=C(COc1ccc(Br)cc1)Nc1nc(-c2cccnc2)cs1 | i | 14 | -5 | 2 | 2 | 9 | -16 | 16
COc1cc(C2NC(=O)NC(C)=C2C(=O)OC2CCCCC2)cc(Br)c1O (centres undefined) | i | 23 | -1 | 4 | -1 | 5 | 19 | 3
COc1cc(C(=O)NCc2nnc(SCC(=O)N3CCCC3)o2)cc(OC)c1OC | i | -8 | 7 | 7 | 8 | 14 | -12 | -1
CCCCOc1ccc(NC(=O)CN2CCN(CC)CC2)cc1 | i | 0 | . | 2 | -2 | 1 | 8 | 13
N#C/C=C1/NC(=O)c2ccccc2S1 | i | . | . | -7 | 6 | ? | -12 | ?
COc1ccc(NS(=O)(=O)c2ccc(N3CC(O)=C(c4ccccc4)C3=N)cc2)cc1 | i | -13 | 3 | 1 | 1 | 7 | 7 | 4
Clc1ccc(OCCSc2ncccn2)c(Br)c1 | i | -70 | -4 | 2 | 0 | 2 | . | 2
COCCNC(=O)c1cc(-c2ccc(OC)c(OC)c2)on1 | i | -26 | . | 8 | 0 | 9 | -15 | -13
CCN1CCN(C(=O)CSc2cc(=O)n(C)c3ccccc23)CC1 | i | -5 | -2 | -3 | 3 | 1 | . | -6
Cc1ccc(C)c(N2CCN(C(=O)CCCn3ncn4c(cc5occc54)c3=O)CC2)c1 | i | -4 | -1 | 1 | 0 | 5 | -4 | 3
O=C(c1cc(C2CC2)nn1-c1ccccc1)N1CCN(S(=O)(=O)c2c(F)cccc2F)CC1 | . | -9 | . | -2 | 1 | . | -9 | .
COc1ccc(CN(C)S(=O)(=O)c2ccc3c(c2)OCCO3)cc1 | i | -3 | -5 | -1 | -3 | -10 | -17 | -7
CC(C)n1ncc2c(C(=O)NCCc3ccc(S(N)(=O)=O)cc3)cc(C3CC3)nc21 | . | 6 | . | -1 | 1 | . | -7 | .
CCOC(=O)C1CCCN(c2oc(-c3ccc(OC)cc3)nc2C#N)C1 (centres undefined) | ? | 23 | 4 | 3 | -3 | -3 | 2 | 1
CCOc1ccc(S(=O)(=O)NN)cc1 | i | -60 | 11 | -11 | -10 | -6 | -17 | -14
Cc1cc(Cl)ccc1OCC(=O)Nc1ccccc1CO | i | -325 | -14 | -7 | -2 | 4 | -1 | -2
CC(C)c1nnc(NC(=O)CC(C)c2ccccc2)s1 (centres undefined) | i | -2 | -7 | -2 | -3 | -3 | -9 | -2
S=C(NCc1cccs1)Nc1ccccc1 | i | 6 | -10 | 5 | 3 | -4 | . | -3

Next section
SMILES | Rce1 inh | HIV Env fusion | CSC inhib | MT1-MMP act inh | MT1-MMP act inh RFP | PABP FP inh | UUG fidelity | eIF4H inh
COc1cccc(CNC(=O)CCC(=O)N2CCOCC2)c1 | . | . | -10 | 0 | 3 | . | -15 | .
CN1OC[C@@H]2CN(C(=S)NCCc3ccccc3)[C@H](c3ccccc3Br)C[C@@H]21 | . | 7 | . | -5 | -1 | . | -23 | .
O=c1oc2ccccc2c(NC2CCCCC2)c1NS(=O)(=O)c1ccc(Br)cc1 | i | . | . | -6 | -4 | 10 | 8 | -8
CCOC(=O)C1=C(CC)Nc2ccccc2N=C1NC(=O)Nc1ccc(Cl)c(Cl)c1 | i | 114* | -3 | -13 | -26 | -4 | -6 | -11
FC(F)(F)c1nc2nc(Cl)c(Cl)nc2n1CCCN1CCOCC1 | . | -55 | . | 5 | 5 | . | -5 | .
CC(=O)c1cccc(NC(=S)NC2CCCCC2)c1 | i | -3 | 7 | -2 | -2 | 8 | . | 3
CCCc1cc(=O)oc2c(CN3CCCC3)c(O)ccc12 | i | . | -10 | 0 | 3 | 33 | -11 | 31
CC(C)N(C(=O)[C@H]1CC(CC(=O)NCCc2ccccn2)C(=O)N2CCc3c([nH]c4ccccc34)[C@]12C)C(C)C (some centres undefined) | . | 2 | -13 | -4 | -3 | . | -4 | .
CCOc1ccc2oc(C(=O)OCC(=O)NC3CCCCC3)c(C)c2c1 | . | -4 | 3 | 1 | -2 | . | -15 | .
C[C@@H]1CN([C@H](C)CO)C(=O)CCCn2nncc2CO[C@H]1CN(C)Cc1ccc(Oc2ccccc2)cc1 | . | 17 | . | 1 | 3 | . | -6&-3 | .
O=C(NNS(=O)(=O)c1ccc(Br)cc1)C1CCCCC1 | i | -2 | -16 | -3 | 1 | 8 | . | -5
CCOC(=O)c1ccc(S(=O)(=O)N2CCN(CC3CC=CCC3)CC2)cc1 (centres undefined) | i | 15 | -14 | 1 | -10 | 5 | -6 | -4
CC(C)(C)n1ncc2c(=O)n(CC(=O)c3ccc(Cl)cc3)cnc21 | i | . | -5 | 7 | 11 | 9 | -8 | 1
CCOC(=O)c1cc(NC(=O)Nc2ccc(OC)c(OC)c2)c(C)nc1C | i | . | -3 | 0 | 2 | 11 | -7 | 0
COC(=O)c1ccccc1NC(=O)CCC(=O)N1CCSc2ccccc21 | i | 4 | . | 2 | 2 | 16 | -2 | -3
O=C(CSc1ncc(-c2ccccc2)[nH]1)Nc1cccc(O)c1 | i | . | 17 | 2 | 0 | 1 | -9 | 1

By substructure: those above with a Cl atom.
SMILES | Rce1 inh | HIV Env fusion | CSC inhib | MT1-MMP act inh | MT1-MMP act inh RFP | PABP FP inh | UUG fidelity | eIF4H inh
C/C(CC(=O)Nc1cccnc1)=N\NC(=O)c1ccc([N+](=O)[O-])c(Cl)c1 | i | 16 | 8 | 1 | 2 | 4 | . | 9
CC1CCC(NC(=O)COC(=O)CCC(=O)c2ccc(Cl)s2)CC1 (centres undefined) | i | -8 | -7 | 0 | 4 | . | -14 | .
O=C(CN1CCCC1)Nc1cccc(Cl)c1 | i | -106 | 0 | 3 | 5 | 10 | -22 | -14
Cc1c(Cl)cccc1NC(=O)Cn1cc(C(F)(F)F)cc(Cl)c1=O | i | 7 | -12 | 3 | -1 | 0 | . | 10
CC(C)(C)C(=O)N(Cc1ccc(Cl)cc1)Cc1cccnc1 | i | -8 | -9 | -2 | 0 | 0 | -10 | -12
Clc1ccc(OCCSc2ncccn2)c(Br)c1 | i | -70 | -4 | 2 | 0 | 2 | . | 2
Cc1cc(Cl)ccc1OCC(=O)Nc1ccccc1CO | i | -325 | -14 | -7 | -2 | 4 | -1 | -2
CCOC(=O)C1=C(CC)Nc2ccccc2N=C1NC(=O)Nc1ccc(Cl)c(Cl)c1 | i | 114* | -3 | -13 | -26 | -4 | -6 | -11
FC(F)(F)c1nc2nc(Cl)c(Cl)nc2n1CCCN1CCOCC1 | . | -55 | . | 5 | 5 | . | -5 | .
CC(C)(C)n1ncc2c(=O)n(CC(=O)c3ccc(Cl)cc3)cnc21 | i | . | -5 | 7 | 11 | 9 | -8 | 1

Screening results (PubChem BioAssay)
